# Rango complex inh = qHTS Assay for Inhibitors of Rango (Ran-regulated importin-beta cargo) - Importin beta complex formation; Rango CFP/YFP FRET sensor + importin beta, 45 min; Potency, µM (highest dose often 92.2 µM), for the others: top-dose inhibition of complex formation; 340,000 tested, 0.031% active; AID 540263, 2011; active = rising FRET ratio curve, often small or poorly fitted; inconclusive = mostly compound fluorescence or quenching in the first reads; inactive = flat curves in all reads;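 also: potency is read from the fitted curve at half-maximal effect; 0% = DMSO wells and 100% = buffer wells lacking importin beta; nearly all actives have a fitted effect of over 15% in size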
#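 Inhibition scored from the CFP 486 nm/YFP 530 nm FRET ratio 45 min after adding 0.125 microM importin beta to 50 nM Rango biosensor preincubated 5 min with compound (room temperature, PBS with DTT, Tween-20, BSA). No-importin wells as positive control.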
# Rango release inh = qHTS Assay for Inhibitors of RanGTP induced Rango (Ran-regulated importin-beta cargo) - Importin beta complex dissociation. Biochemical FRET Rango-importin beta, RanGTP-induced dissociation. Potency, µM (highest dose often 46.1 µM), without a hit: at the highest dose activity change, negative = inhibition. 340,000 tested, 0.071% active; active means falling FRET ratio curve, often poorly fitted, with flat reads before Ran was added; inconclusive means other falling curves, or compound fluorescence or quenching; inactive means flat or rising ratio curve;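 also: potency is read from the fitted curve at half-maximal effect; % of control where 0% means no effect; nearly all actives have a fitted effect of over 45% in size; -100% = wells without RanGTP and RCC1; the record marks most hits as doubtful in a second field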
#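 Rango FRET biosensor (snurportin-1 IBB flanked by N-terminal EYFP and C-terminal CFP10) at 0.1 uM, with 0.25 uM importin beta in PBS, 1mM DTT, 0.02% Tween-20, 0.1% BSA. 0.6 uM Ran, 2mM GTP and 0.2 uM RCC1 were then added for 45 min at room temperature. Inhibition read as loss of FRET rise.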
# miR-21 reporter = qHTS Assay for Modulators of miRNAs and/orActivators of miR-21; HeLa miR-21 FLuc reporter, luciferase, 48 h; Potency, µM (series often up to 38.3 µM), without a hit: at the top dose reporter change, positive = more light; 340,000 tested, under 10 active; active = well fitted rising curve with a large enough effect; inconclusive = small, poorly fitted or top-dose-only effect; inactive = no such curve, though single readings can be large or run the other way;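 also: % of control where 0% means no effect; miR-21 action dims this reporter so a rising signal means less miR-21 action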
#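 Using DMEM plus 10% FBS, HeLa miR-21-FLuc cells are incubated with test compounds (final up to about 40uM) for 48 hours; firefly luciferase signal is then imaged following reagent-mediated lysis.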
# GLA inh pH 4.5 = qHTS Assay for Inhibitors of Human alpha-Galactosidase at pH 4.5. Alpha-galactosidase A (Homo sapiens), P06280. purified enzyme, 4-MU-alpha-Gal fluorescence, pH 4.5. activity change, negative = inhibition, % at 105 µM. 230,000 tested, under 10 active. AID 1467, 2008; inconclusive = small, poorly fitted or top-dose-only inhibition, or a rising curve; inactive = flat fitted curve, though single readings scatter; no compound was filed as active;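 also: 0% = full activity with enzyme and -100% = basal without enzyme; dose as in the result columns while the protocol names 77 µM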
# Target sequence (P06280 whole entry, looked up): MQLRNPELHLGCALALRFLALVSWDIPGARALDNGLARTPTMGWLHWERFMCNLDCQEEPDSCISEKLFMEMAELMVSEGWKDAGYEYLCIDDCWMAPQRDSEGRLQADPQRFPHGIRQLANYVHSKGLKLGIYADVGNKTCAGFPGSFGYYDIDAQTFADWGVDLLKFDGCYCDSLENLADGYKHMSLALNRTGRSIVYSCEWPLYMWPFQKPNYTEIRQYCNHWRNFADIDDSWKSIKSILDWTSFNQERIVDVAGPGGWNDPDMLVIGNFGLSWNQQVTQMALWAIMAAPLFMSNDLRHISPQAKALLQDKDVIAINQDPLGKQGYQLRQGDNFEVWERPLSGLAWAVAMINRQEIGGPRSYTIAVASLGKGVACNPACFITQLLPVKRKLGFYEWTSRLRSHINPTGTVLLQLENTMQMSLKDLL
# * = called active by the depositor; ? = inconclusive; . = no result given; & = joins results of further samples. A portion of the library (hit frequency here may not be typical).
SMILES,Rango complex inh,Rango release inh,miR-21 reporter,GLA inh pH 4.5
CCCCNC(=O)c1cc([N+](=O)[O-])[nH]n1,-0.1%,11%,-2%,0
CS(=O)(=O)N(CC(=O)NCc1ccc2c(c1)OCO2)Cc1ccc(Cl)cc1,0.7%,0%,-2%,-1
CN(CC(=O)Nc1cccc(F)c1)C(=O)c1ccc(N2CCOCC2)c([N+](=O)[O-])c1,4.7%,-5%,-4%,.
COc1ccccc1NC(=O)CN1CCN(S(=O)(=O)c2ccc(Br)cc2)CC1,-3.7%,1%,0%,1
COC(=O)CCN(c1ccccc1)S(=O)(=O)c1ccc(OC)cc1,3.6%,1%,-9%,-20
O=C(CCC1CCCCC1=O)c1ccccc1 (centres undefined),-1.1%,0%,-17%,7
O=C(COC(=O)/C=C/c1ccc(OC(F)F)cc1)Nc1cccc(S(=O)(=O)N2CCCC2)c1,2.0%,6%,.,.
O=C(c1cc(-c2ccc(O)cc2)on1)N1CCCCCC1,1.1%,6%,-24%,.
C[C@H](NC(=O)c1ccccc1)C(=O)Nc1nc(-c2ccccn2)cs1,0.1%,6%,15%,0
CCN1CCC(=NNC(=O)c2ccc(C)c([N+](=O)[O-])c2)CC1,-1.2%,-10%,-2%,-2
COc1ccc(Cl)cc1NC(=O)CN(C)C(=O)Cn1cnnn1,4.4%,1%,.,.
C[C@@H](C(=O)O)[C@H]1C[C@]1(C)[C@H](NC(=O)OCc1ccccc1)c1ccccc1,1.0%,-5%,-19%,-1&-6
CCCC(=O)Nc1c(-c2ccccc2OC)c(=O)c2ccccc2n1C,-0.3%,1%,-1%,-6
O=C(c1ccc2nc[nH]c2c1)N1CCN(c2cccc(C(F)(F)F)c2)CC1,1.9%,0%,1%,.
CC(C)c1ccc(CN2CCC(Oc3ccc(C(=O)N4CCCC4)cc3)CC2)cc1,-0.9%,-4%,11%,.
O=C(NC(=S)N1CCOCC1)C12CCC3CC(CC(C3)C1)C2,1.4%,-1%,-8%,1
CC1Sc2ccc(C(=O)OCc3ccccc3Cl)cc2NC1=O (centres undefined),-1.0%,0%,.,.
CCOc1ccc(C(=O)NCC(=O)N2CCN(c3ccccc3O)CC2)cc1,-0.8%,-12%,3%,.
COc1ccc(CNC(=O)/C=C/c2ccc(OCCCF)cc2)cc1,0.8%,-10%,-14%,-2
O=C1C(CCS(=O)c2ccccc2)C(=O)N(c2ccccc2)N1c1ccccc1 (centres undefined),6.9%,-1%,-7%,3&7&-2
CC1CN(C(=O)CN2C(=O)NC3(CCCC3)C2=O)C(=Nc2cccc(S(=O)(=O)N(C)C)c2)S1 (centres undefined),-2.0%,0%,.,.
COc1ccc(C(=O)Nc2c(N)nc(SCC(=O)NCC3CCCO3)[nH]c2=O)cc1 (centres undefined),-0.4%,-12%,-4%,.
COC(=O)c1ccc2nc(-c3ccc4c(c3)OCO4)cn2c1,3.7%,6%,-42%,14
COc1ccc(CN2CCN(C(C)C(=O)NC(C)c3ccc(F)cc3)CC2)cc1F (centres undefined),-0.8%,-6%,2%,.
CCc1ccc(C(=O)NNc2ccc(F)cc2F)cc1,4.4%,-2%,0%,-14
# Continuation.
SMILES,Rango complex inh,Rango release inh,miR-21 reporter,GLA inh pH 4.5
O=C(NC1CCCCC1)C(c1ccc2ncccc2c1)N(Cc1ccco1)C(=O)c1ccc2c(c1)OCCO2 (centres undefined),-0.4%,2%,3%,-1
CN1CCN(S(=O)(=O)c2cccc(C(=O)NCCOc3ccccc3)c2)CC1,-0.3%,-9%,.,.
CCCc1nc2ccc(NC(=O)c3cccs3)cc2c(=O)n1Cc1ccc(Cl)cc1,0.3%,12%,-13%,8
COc1ccccc1C1/C(=C(\O)c2ccc3c(c2)OCCO3)C(=O)C(=O)N1CCCn1ccnc1 (centres undefined),-0.5%,7%,-30%,.
COc1cc(/C=N/N2C(C)CCCC2C)cc(OC)c1O (centres undefined),4.2%,3%,-2%,.
c1ccc(-c2nc(N3CCCC3)nc3ccccc23)cc1,?,?,-2%,2
CCOC(=O)c1c(C)[nH]c(C=O)c1Cc1cccc(Cl)c1,-4.7%,1%,26%,-3
CC(C)(C)NC(=O)C1CCC(CNS(=O)(=O)c2cccc3nsnc23)CC1 (centres undefined),6.3%,-7%,3%,.
O=C(NCCCO)NC(=S)c1cccc2ccccc12,-1.0%,?,-4%,6
O=C(Nc1ccc(N2CCN(C(=O)c3ccco3)CC2)cc1)c1ccc(Br)cc1,2.0%,-5%,-4%,.
Fc1cccc(CCN2C(=S)NC[C@@H]2CC2CCCCC2)c1,7.3%,-1%,22%,9
O=C1SC(SCc2ccccc2)=N/C1=C\c1ccc(C(=O)O)cc1,?,?,8%,-5
O=C(O)Cn1c(O)c(C=Nc2ccccc2)sc1=S,?,?,-7%&-7%,-26&-5
COc1cccc(CC(NC(C)=O)C(=O)NC2CCN(S(=O)(=O)c3ccc(C)cc3)CC2)c1OC (centres undefined),3.7%,-20%,2%,5
O=C1CC[C@@H](CN(Cc2ccccn2)Cc2nc(Cc3cccc(C(F)(F)F)c3)no2)N1,-1.4%,-4%,-1%,-3
CCOc1ccc(S(=O)(=O)N(C)CC(=O)NCc2ccccn2)cc1,2.7%,17%,0%,.
CCC1CCCCN1CCNC(=O)c1[nH]c(C)c(C(C)=O)c1C (centres undefined),?,-18%,-3%,-2
COc1ccc2cc(C(=O)NCC3CCCO3)[nH]c2c1 (centres undefined),1.5%,-5%,-48%,.
Cn1c(=O)c2c(ncn2CC(=O)OCC(=O)Nc2cc(Cl)ccc2C#N)n(C)c1=O,3.5%,5%,.,.
CCCCS(=O)(=O)CC(COc1ccccc1)OC(=O)c1ccccc1 (centres undefined),3.6%,-1%,17%,-1
CCOc1ccc(CC(=O)Nc2cccc(-c3ccc4nnc(C)n4n3)c2)cc1,0.7%,?,11%,6
O=C(Nc1cc(C(F)(F)F)ccc1N1CCOCC1)C1CCCO1 (centres undefined),2.7%,-3%,.,.
O=C(CN1C(=O)C2C3C=CC(C3)C2C1=O)N1CCc2ccccc2C1 (centres undefined),2.7%,-20%,-9%,-14
Cc1cc(C(=O)NNc2ccc(C(C)C)cc2)n(C(C)(C)C)n1,2.6%,8%,-5%,-1
COc1ccccc1NC(=O)c1cc[n+]([O-])cc1,-4.0%,0%,-5%,.
# Continued:
SMILES,Rango complex inh,Rango release inh,miR-21 reporter,GLA inh pH 4.5
Cc1c(Cl)cccc1NC(=O)CCC(=O)NNC(=O)c1ccco1,-0.5%,2%,-6%,1
Cc1ccc2c(c1C)NC(C(=O)O)C1CC=CC21 (centres undefined),?,?,-2%&-1%,0&1
CCn1cc(S(=O)(=O)Nc2cc(F)ccc2C)cn1,-4.8%,-1%,-1%,2
CCN1CCSc2ccc(C(=O)NCc3ccccc3F)cc21,0.9%,4%,-12%,.
CCCC(=O)Nc1c(-c2ccccc2)c(=O)c(C)nn1-c1ccc(C)cc1,2.1%,7%,-4%,-3
Cc1cc(C)c(OCCNC(=O)c2ccccc2Sc2ccccc2C#N)c(C)c1,2.9%,1%,-2%,-10
O=C(COc1ccc(Cl)cc1Cl)OCn1nnc2ccccc2c1=O,-1.1%,3%,-6%,-1
O=C1CSC(c2ccccc2)N1CC(O)c1ccc([N+](=O)[O-])cc1 (centres undefined),-1.2%,19%,8%,-4
Cc1occc1-c1nnc(SCC(=O)NC2CC2)n1C,0.2%,33%,0%,.
CC1CCCC(NC(=O)COC(=O)c2n[nH]c3ccccc23)C1C (centres undefined),?,13%,.,.
Cc1ccc(C(=O)Nc2ccc(N3CCN(C(=O)c4ccco4)CC3)cc2)c(Cl)c1,0.7%,15%,-2%,.
CC(=O)Nc1ccc(NC(=O)CSc2nncn2C)cc1,1.3%,5%,0%,.
Cc1cccc(C)c1NC(=O)CN,-1.2%,-14%,-1%,-16
O=[N+]([O-])c1cc(C(F)(F)F)ccc1NCCCCNS(=O)(=O)c1ccc2ccccc2c1,1.0%,-9%,-5%,-5
Cn1c(N)c(-c2nc3cccnc3n2C)sc1=S,?,?,-12%,-10
CCCCCCCC(=O)N/N=C(\C)c1ccc(N)cc1,.,.,-4%,-2
Cc1ccc(S(=O)(=O)N2CCC(C(=O)Nc3ccccc3N3CCCC3)CC2)cc1,7.9%,14%,.,.
CCN(C(=O)c1cc2c(=O)[nH]c3ccc(C)cc3c2s1)c1ccc(OC)cc1,1.7%,28%,-2%,-4
COC(=O)c1ccc(CN2C(=O)NC(Cc3c[nH]c4ccccc34)C2=O)cc1 (centres undefined),-0.4%,-18%,-15%,.
O=C(COc1ccccc1)NCC(c1ccco1)N1CCCCC1 (centres undefined),?,18%,.,.
Cc1ccc(S(=O)(=O)Nc2nc(C)c(NC(=O)OCCCl)s2)cc1,-1.3%,-3%,-5%,4
CC(C)(Oc1ccc(F)cc1)C(=O)OCC(=O)c1ccc(S(C)(=O)=O)cc1,-2.1%,-7%,.,.
COc1ccc(CNC(=O)Nc2ccc(C)cc2C)cc1,5.4%,-3%,0%,-2
COc1ccc(NC(=O)C(Cc2ccccc2)n2cccc2)cc1 (centres undefined),0.1%,11%,1%,2
COC(=O)[C@]1(CC(C)C)N[C@H](c2ccc(-c3ccccc3)cc2)[C@@H]2C(=O)N(C)C(=O)[C@@H]21,1.4%,-13%,.,.
# Next section
SMILES,Rango complex inh,Rango release inh,miR-21 reporter,GLA inh pH 4.5
CN(Cc1nc2ccccc2c(=O)[nH]1)Cc1nc2ccsc2c(=O)[nH]1,-4.0%,10%,4%,2
Cn1c(=O)[nH]c(=O)c2c1nc(CN1CCN(c3ccccc3F)CC1)n2CCCc1ccccc1,-6.5%,6%,-11%,-6
O=C(COC(=O)CNC(=O)C1CCCCC1)Nc1ccc(Br)cc1Br,-0.9%,-2%,.,.
Cc1cc(C)cc(OCC(=O)Nc2ccccc2N2CCCCC2)c1,4.1%,4%,0%,2
CC(C)CC(=O)N1CCC(O)(CS(=O)(=O)Cc2ccccc2)CC1,2.7%,-13%,4%,-1
CCOC(=O)c1ccc2c(c1)n(CCCS(=O)(=O)[O-])c(/C=C/c1ccc(Cl)cc1)[n+]2CC,-0.1%,28%,4%,8
COc1ccc(Cl)cc1NC(=O)CN(C)C(=O)Cc1ccc(-c2ccccc2)cc1,-4.0%,-17%,.,.
O=C(NCCCN1CCOCC1)c1ccc(Br)cc1Br,.,.,-14%,5
COC(=O)c1ccc2[nH]c3c(c2c1)CC(C)CC3 (centres undefined),-7.0%,2%,-27%,.
CCN(CC)S(=O)(=O)c1ccc(N2CCOCC2)c(NC(=O)COc2ccccc2)c1,3.4%,9%,-4%,-3
CC(C)NC(=O)CC(=O)N/N=C\c1ccccc1C(=O)O,0.0%,-3%,0%,0
CCOc1cc(C(c2c(C)[nH][nH]c2=O)c2c(C)[nH][nH]c2=O)cc([N+](=O)[O-])c1O,-2.2%,-2%,-4%,.

# Assay outcomes deposited in PubChem by National Center for Advancing Translational Sciences (NCATS).
